# Compound activity deposited in PubChem BioAssay by Johns Hopkins Ion Channel Center.
# KCNQ2 inh: KCNQ2 channel blockers in CHO-K1 cells – cell-based, FluxOR thallium flux, B-score, primary screen (AID 2156) | O88943 | 20 min; stronger effect = lower value; only compounds with negative scores are shown here; some inactives read as strong as hits | actives 1.1% (n = 310,000) | B-score at 10 µM;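 active = fluorescence ratio B-score at most minus 3 library SDs, with starting brightness B-score within 2 library SDs, cut at about -5.5 in these data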
# Target sequence (O88943 whole entry, looked up): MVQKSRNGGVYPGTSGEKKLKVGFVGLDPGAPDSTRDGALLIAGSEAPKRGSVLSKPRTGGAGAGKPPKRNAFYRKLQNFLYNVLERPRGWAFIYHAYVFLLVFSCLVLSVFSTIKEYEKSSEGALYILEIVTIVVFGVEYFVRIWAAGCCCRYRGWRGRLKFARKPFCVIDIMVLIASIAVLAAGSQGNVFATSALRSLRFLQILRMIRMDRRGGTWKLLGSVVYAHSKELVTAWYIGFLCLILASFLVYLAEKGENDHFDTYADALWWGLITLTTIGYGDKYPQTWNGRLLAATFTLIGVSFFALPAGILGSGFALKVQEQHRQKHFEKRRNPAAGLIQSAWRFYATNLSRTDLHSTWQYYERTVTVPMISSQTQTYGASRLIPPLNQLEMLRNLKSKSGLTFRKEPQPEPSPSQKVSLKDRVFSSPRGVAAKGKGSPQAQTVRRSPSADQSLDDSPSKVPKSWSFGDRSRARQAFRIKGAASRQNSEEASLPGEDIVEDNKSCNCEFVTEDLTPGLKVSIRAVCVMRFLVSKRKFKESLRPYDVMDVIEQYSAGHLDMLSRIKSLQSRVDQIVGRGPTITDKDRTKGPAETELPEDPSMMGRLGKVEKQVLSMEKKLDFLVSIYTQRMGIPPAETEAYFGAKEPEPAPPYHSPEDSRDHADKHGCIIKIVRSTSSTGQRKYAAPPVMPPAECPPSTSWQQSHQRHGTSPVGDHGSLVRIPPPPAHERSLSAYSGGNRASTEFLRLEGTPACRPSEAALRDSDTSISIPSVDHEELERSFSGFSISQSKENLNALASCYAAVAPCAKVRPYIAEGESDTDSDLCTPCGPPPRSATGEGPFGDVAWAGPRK
# KCNQ2 inh baseline: second read-out of KCNQ2 inh, no call of its own (marks repeat the call); B-score; measured here: initial fluorescence intensity artifact check;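 brightness before thallium and not channel activity; 0 = typical well and far values either way flag optical interference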
# An asterisk follows results filed as active; i = inactive. Some of the compounds tested. The share of hits here may be higher or lower than overall.
SMILES,KCNQ2 inh,KCNQ2 inh baseline
CCOc1ccc(N=C2C(=O)N(CN3CCOCC3)c3ccccc32)cc1,i,-1.1
CCOC(=O)N1CCC(N2C(=O)c3ccccc3C2Nc2ccc3c(C)cc(=O)oc3c2)CC1 (configuration not stated),i,1.9
CCOC(=O)c1sc(NC(=O)CSc2ncn[nH]2)c(C#N)c1C,i,-0.07
CCOc1ccc(S(=O)(=O)N2CCN(C(=O)c3cc(-c4ccccc4)nn3-c3ccccc3)CC2)cc1,i,-0.16
Cc1ccc(CSCCNC(=O)c2ccccc2)cc1,i,-0.52
COC(=O)c1ccsc1NC(=O)CN1CCN(c2ncccn2)CC1,i,1.2
O=C(O/N=C1\CCCCC1c1ccc([N+](=O)[O-])cc1[N+](=O)[O-])c1c(F)cccc1F (configuration not stated),i,-0.06
CC1=NN(c2ccc(C(=O)O)cc2)C(=O)/C1=C/c1ccc(-c2ccccc2F)o1,i,-0.34
Cc1ccc(C(=O)/C=C/c2ccc(Br)cc2)o1,i,1.6
CC1CC(C)CN(CCCNC(=O)C2CCN(S(=O)(=O)N3CCCCC3)CC2)C1 (configuration not stated),i,0.04
CC(C)C12CCC(C(=O)O)C(C1)C(=O)O2 (configuration not stated),i,-1.6
COc1cccc(-c2c(NC(=O)c3ccco3)oc3ccccc3c2=O)c1,i,-1.4
CC1CCCC(NC(=O)c2ccc(CNc3c(N4CCCC4)c(=O)c3=O)cc2)C1C (configuration not stated),i,-0.13
Cc1cc(NC(=O)CCC(=O)N(CC(=O)NCC2CCCO2)c2cccc(F)c2)no1 (configuration not stated),i,0.26
Cc1ccc2c(CC(=O)OC3CCOC3=O)coc2c1 (configuration not stated),i,-0.96
O=C1C2CCCN2C(c2ccccc2)N1c1cccc(Cl)c1 (configuration not stated),i,0.82
COC(=O)c1ccc(COc2ccc3ccc(=O)oc3c2)o1,i,0.34
CCOc1ccc(N2CC(C(=O)NCCN3C(=O)S/C(=C\c4ccc(OC)cc4)C3=O)CC2=O)cc1 (configuration not stated),i,0.7
CC1CC(C)CN(CC(C)(C)NS(=O)(=O)c2ccccc2)C1 (configuration not stated),i,1.4
CC(C)(C)NC(=O)C(c1ccc(F)cc1)N(CC1CCCO1)C(=O)CCC(=O)Nc1ccccn1 (configuration not stated),i,0.22
CCOc1ccc(C(=O)NC(=S)Nc2ccc(NC(=O)CC)cc2)cc1[N+](=O)[O-],i,0.77
Cc1ccc(-n2ncc(C(=O)N3CCc4ccccc4C3)c2NC(=O)c2ccco2)cc1C,i,-1.3
O=C(CN1CCN(c2ccc(Cl)cc2)CC1)Nc1ccc(F)cc1,i,1.4
CCOC(=O)c1ccc(NC(=S)NC2CC(C)(C)NC(C)(C)C2)cc1,i,1.2
COc1ccc(Cl)cc1C(=O)O/N=C(\N)c1ccc(Cl)cc1,i,-0.71

# New compounds follow:
SMILES,KCNQ2 inh,KCNQ2 inh baseline
O=C(CN1CCN(CCOCCO)CC1)N1c2ccccc2Sc2ccc(Cl)cc21,i,-1.5
CCc1c(C)nc(SCC(=O)N2CCN(c3ccccc3OC)CC2)[nH]c1=O,i,2.6
CCc1cccc(C)c1N(C(=O)Cn1c(=O)[nH]c2ccccc21)C(C)COC (configuration not stated),i,4.1
COc1ccc(C2C(C(=O)N3CCCCC3)c3ccccc3C(=O)N2C)cc1 (configuration not stated),i,-1.2
CCOC(=O)Cn1c(=O)cc(C)c2cccc(C)c21,i,-0.13
CCOC(=O)Cn1c(=O)c(-c2ccccc2NCc2ccccc2)nc2ccccc21,i,-0.26
CCn1ccc(C(=O)Oc2ccc(C(C)C)cc2)n1,i,-0.59
Cn1cccc1/C=C1\SC(=Nc2ccccc2)NC1=O,i,0.6
CCN(CC)C(=O)c1ccc(-c2nnc(Nc3ccc(C(=O)NC)cc3)c3ccccc23)cc1,i,0.73
O=C(c1cc(S(=O)(=O)N2CCCCC2)ccc1N1CCOCC1)N1CCN(Cc2ccccc2)CC1,i,2
COc1cccc(C(c2ccccc2)N2C3CCC2CN(S(=O)(=O)c2ccc(F)cc2)CC3)c1 (configuration not stated),i,0.73
Cc1ccc(NC(=O)COC(=O)CSC(=S)N2CCOCC2)cc1C,i,-0.1
CCN1C(=O)c2ccccc2Sc2ccc(C(=O)NCCN3CCOCC3)cc21,i,0.14
C=C(C)CNC(=O)c1ccc(OC2CCN(S(=O)(=O)N(C)C)CC2)cc1,i,-0.08
O=c1[nH]c(Cc2cccs2)nc2scc(-c3ccc(Cl)cc3)c12,i,-1.5
O=C(N/N=C/c1ccncc1)c1ccc(NC(=O)c2ccc(Cl)cc2)cc1,i,2.9
Cc1ccc(NC(=S)Nc2cc(C(=O)O)ccc2N2CC3CC(C2)c2cccc(=O)n2C3)cc1C (configuration not stated),i,-1.1
O=C(c1cccc(NS(=O)(=O)c2cccc(F)c2)c1)N1CCCC1,i,0.4
Cc1ccc(NC(=O)CSc2n[nH]c(-c3ccco3)n2)c(C)c1,i,1.3
O=c1c2cc(N3CCOCC3)ccc2[nH]c(=S)n1Cc1ccco1,i,0.01
O=C(NCc1cccc(Cl)c1)c1ccc2ccccc2n1,i,-1.5
N#CCCN(Cc1cccnc1)C(=O)c1ccc(S(=O)(=O)N2CCOCC2)cc1,i,1
CCCc1cc(C(=O)N2CCN(C(c3ccccc3)c3ccccc3)CC2)no1,i,-0.69
CC(C)C(=O)Nc1ccc(Oc2ccc3c(c2)C(=O)NC3=O)cc1,i,1.1
c1ccc(Oc2ccc(-c3ccnc4nc(N5CCN(c6ccccc6)CC5)nn34)cc2)cc1,i,0.86

# Next section
SMILES,KCNQ2 inh,KCNQ2 inh baseline
O=C(CSc1nnc2c(n1)[nH]c1ccccc12)Nc1ccc2c(c1)OCO2,i,-0.76
COc1ccc(S(=O)(=O)N(C)c2ccc(C(=O)N3CCC(C(N)=O)CC3)cc2)cc1,i,-2.8
COc1ccc(NC(=O)CSc2c(C)n[nH]c2C)cc1,i,-1.6
CC(C)(C)c1ccc(OC(=O)c2ccccc2)cc1,i,0.06
COC(=O)c1ccc(N2CCN(c3ccccc3)CC2)nc1,i,-1.2
CC(=O)Nc1ccc(OC(=O)c2ccc(Cl)cc2)cc1,i,0.46
CC(=O)c1ccc(NC(=S)N2C(C)CCCC2C)cc1 (configuration not stated),i,1.3
COC(=O)c1ccc(CSc2nc3ccc(C)cc3[nH]2)o1,i,1.1
COc1ccc(Cl)cc1-c1nc(N)nc(N(C)C)n1,i,-1.2
CC1(C)Cc2c(c(N3CCOCC3)nc3sc4c(NN)ncnc4c23)CS1,i,0.13
C=C1CCN(C(C(=O)OC)C(C)C)S(=O)(=O)c2ccccc21 (configuration not stated),i,-0.02
CCOC(=O)c1c(NC(=O)CC)sc2c1CCN(Cc1ccccc1)C2,i,-1.1
Cc1cc(C)cc(C(=O)Nc2ccc3[nH]c(=O)[nH]c3c2)c1,i,-0.62
COC(=O)c1c(NC(=O)CN2CCC3(O)CCCCC3C2c2ccc(OC)cc2OC)sc(C)c1C (configuration not stated),i,-0.91
O=c1c([N+](=O)[O-])c(NCCN2CCCCCC2)c2ccccc2n1-c1ccccc1,i,0.04
COc1ccc(C2c3sc(=O)[nH]c3SC3C(=O)N(c4ccccc4)C(=O)C32)cc1 (configuration not stated),i,-2.6
CC(C)N1CCc2c(sc(NC(=O)c3ccc4ccccc4c3)c2C(N)=O)C1,i,1.9
Cc1cc(C)nc(NC(=S)Nc2cccc(Cl)c2Cl)c1,i,0.45
Cc1ccccc1-n1c(C)nnc1SCc1cc(=O)oc2ccc3ccccc3c12,i,0.33
O=C(CCNC(=O)c1ccc(Br)cc1)NCc1ccncc1,i,-0.74
CC1CCCN(Cc2nc(Cc3ccccc3Cl)no2)C1 (configuration not stated),i,-0.63
COC(OC)c1ccnc(-c2ccc(OC(C)=O)cc2)n1,i,-0.67
CC(=O)c1ccc(NC(=S)NCCc2ccc(S(N)(=O)=O)cc2)cc1,i,0.32
Cc1ccc(NC(=O)Cn2nc(-c3ccccc3Cl)ccc2=O)c(Br)c1,i,1.9
CCCNC(=O)c1ccc(N2CCC3(CC2)CC(c2ccccc2)=NO3)c(NC(=O)c2cccc(OC)c2)c1,i,0.26

# Part of the list above in order of molar mass, rising:
SMILES,KCNQ2 inh,KCNQ2 inh baseline
CC(C)(C)c1ccc(OC(=O)c2ccccc2)cc1,i,0.06
CC(C)C(=O)Nc1ccc(Oc2ccc3c(c2)C(=O)NC3=O)cc1,i,1.1
CC(=O)c1ccc(NC(=S)NCCc2ccc(S(N)(=O)=O)cc2)cc1,i,0.32
CCc1cccc(C)c1N(C(=O)Cn1c(=O)[nH]c2ccccc21)C(C)COC (configuration not stated),i,4.1
CCOc1ccc(C(=O)NC(=S)Nc2ccc(NC(=O)CC)cc2)cc1[N+](=O)[O-],i,0.77
O=C(c1cc(S(=O)(=O)N2CCCCC2)ccc1N1CCOCC1)N1CCN(Cc2ccccc2)CC1,i,2
CCCNC(=O)c1ccc(N2CCC3(CC2)CC(c2ccccc2)=NO3)c(NC(=O)c2cccc(OC)c2)c1,i,0.26

# Following part:
SMILES,KCNQ2 inh,KCNQ2 inh baseline
CC(=O)c1cc2c(cc1NC(=O)CCc1ccccc1)OCO2,i,1.1
CSc1ccc(/C=C(\C#N)C(=O)Nc2cccc(C)c2)cc1,i,-0.43
CCOc1ncccc1C(=O)N(C)CC(=O)Nc1ccccc1SC,i,-0.63
O=C(NCc1ccc2c(c1)OCO2)C(=O)NCC1OCCN1S(=O)(=O)c1ccc(F)cc1 (configuration not stated),i,1.4
CC1(C)CC(=O)C(C=NCCc2ccc(S(N)(=O)=O)cc2)=C(O)C1,i,-0.37
Cc1c(C)c2cc(Cl)c(OCC(=O)N3CCN(c4ccc(F)cc4)CC3)cc2oc1=O,i,0.13
CC(=O)Nc1ccc(S(=O)(=O)N(C)c2ccc(OCC(=O)OCC(=O)N3CCCCC3)cc2)cc1,i,0.74
Cc1ccc(-n2c(SCC(=O)NC3CCS(=O)(=O)C3)nc3ccccc3c2=O)cc1 (configuration not stated),i,0.3
CCN1CCN(c2c(Cl)cccc2NC(=O)c2ccc([N+](=O)[O-])cc2)CC1,i,-0.14
CC(=O)c1ccc(N(C(=O)c2ccco2)C(C(=O)NC2CCCC2)c2ccc(N3CCOCC3)cc2)cc1 (configuration not stated),i,-0.06
Cc1cccc(C)c1NC(=O)CNC(=O)CCCc1c[nH]c2ccccc12,i,-0.32
O=C(CCn1nnc2ccccc2c1=O)N[C@@H](Cc1c[nH]c2ccccc12)C(=O)O,i,0.18
COc1ccc(N2CCN(S(=O)(=O)c3cnc[nH]3)CC2)cc1,i,0.67
Cc1cc(C)cc(NC(=O)CSc2nc3[nH]ncc3c(=O)[nH]2)c1,i,0.34
Nc1ccnn1Cc1ccncc1,i,-2.4
CCCCCN(C(=O)CCC(=O)OCC(=O)NCc1cccc(OC)c1)c1c(N)n(CCCC)c(=O)[nH]c1=O,i,-1.7
CC(Sc1nnc(N)s1)C(=O)Nc1ccc(N2CCOCC2)cc1 (configuration not stated),i,-0.07
CCCCNC(=O)N(O)C1N(/N=C/c2cccnc2)C(=S)SC1(C)C (configuration not stated),i,2.2
O=C(C[N+]1(CC#Cc2ccccc2)CCCCC1)c1ccc(Cl)cc1,i,-0.51
COC(=O)c1ccccc1NC(=O)Cn1cnc2cc(C)c(C)cc21,i,-0.34
CCOC(=O)c1c(NC(=S)Nc2cccnc2)sc(C)c1C,i,-0.24
CSc1ccc(C#N)cc1NC(=O)c1ccc(Cl)cc1,i,1.8
CC(C1CC1)N(Cc1ccccc1)C(=O)NC(=O)c1ccccc1 (configuration not stated),i,0.67
O=C(Nc1nc(-c2cccs2)c(-c2cccs2)s1)C1CCCC1,i,-0.68
COCCCNC(=O)c1cn(CCOC)c(=O)c2c1c1ccccc1n2C,i,2.3

# Four compounds picked at random from those above, as already listed:
SMILES,KCNQ2 inh,KCNQ2 inh baseline
CCn1ccc(C(=O)Oc2ccc(C(C)C)cc2)n1,i,-0.59
Cc1ccc(NC(=S)Nc2cc(C(=O)O)ccc2N2CC3CC(C2)c2cccc(=O)n2C3)cc1C (configuration not stated),i,-1.1
Cc1c(C)c2cc(Cl)c(OCC(=O)N3CCN(c4ccc(F)cc4)CC3)cc2oc1=O,i,0.13
CCc1c(C)nc(SCC(=O)N2CCN(c3ccccc3OC)CC2)[nH]c1=O,i,2.6

# (further entries)
SMILES,KCNQ2 inh,KCNQ2 inh baseline
Cc1ccc(Cl)cc1NC(=O)CC1NC2CCCCC2NC1=O (configuration not stated),i,-1.2
Cc1ccc(NC(=O)C2CCN(C(=O)c3cccs3)CC2)c(C)c1,i,1.6
O=C(COC(=O)/C=C/c1ccco1)Nc1ncc(C(F)(F)F)cc1Cl,i,1.8
Cc1cnc(NC(=O)c2ccc(Cl)nc2)s1,i,-0.01
NCCNc1ccc([N+](=O)[O-])cc1,i,1.3
CC1CCCCN1CC(=O)Nc1ccccc1Sc1ccccc1 (configuration not stated),i,-0.4
CCN(CC)S(=O)(=O)c1ccc2c(c1)N(CC(=O)N1CCC(C(N)=O)CC1)C(=O)CO2,i,1.3
CCN(CC)C(=O)CSc1nc(-c2ccc(C)cc2)nc2c1COC(C)(C)C2,-7.4*,-0.02*
Cc1cnc(C(=O)OCC(=O)c2ccccc2)cn1,i,-1.4
CCN(CC(=O)Nc1c(F)cccc1F)C(=O)/C=C/c1ccc2c(c1)OCO2,i,1.4
CN1CCN(c2nc3c(c(=O)[nH]c(=O)n3C)n2Cc2ccc(Cl)cc2)CC1,i,0.35
COc1ccc2nc(NC(=O)CCc3nc(-c4ccccc4F)no3)sc2c1,i,-0.92
COc1ccc2cc(C(=O)Nc3c(C)n(C)n(-c4ccccc4)c3=O)sc(=O)c2c1OC,i,-2.4
Cc1ccc2cn[nH]c2c1NC(N)=S,i,-0.75
Cc1csc(SCC(=O)Nc2nc(-c3ccccc3)cs2)n1,i,-0.73
O=C(Cn1ccc2ccccc2c1=O)NCCC(=O)Nc1ccc2c(c1)OCCO2,i,0.03
Cc1ccc(C(=O)CN(C(=O)c2ccc(Cl)c(Cl)c2)N2C(=O)C3CCCCC3C2=O)cc1C (configuration not stated),i,1.6
